Sa ugtP lethal: kills S. aureus RN4220 lacking UgtP; S. aureus RN4220 ugtP deletion, OD600 growth, 16 h; some inactives read as strong as hits; growth inhibition, % (test concentration not listed); 330,000 compounds, 0.54% hits; AID 1259309;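 active means z-score under -3 and OD600 up to 0.15 on both plates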;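 further: plate controls were untreated wells for no effect and antibiotic for full effect; wells of about 80 µL received 100 nL stock; the first replicate is given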
Mtb hypoxia inh: Mtb hypoxia fluorescent reporter inhibition; 300,000 compounds, 0.1% hits; M. tuberculosis hypoxia-regulated fluorescent reporter, fluorescence; fluorescence inhibition, % (concentration not given with the values); AID 1159583;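 active means 35 to 45% if threefold the growth effect, above 45% if 1.5-fold the growth effect; inactive means the rest, general growth blockers included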;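 further: wells of about 50 µL received 100 nL stock; 0% = vehicle wells and 100% = reference inhibitor wells; whole bacteria with a GFP reporter of the hypoxia response; strong numbers were not always called active; many hits fall short of the cut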
Autofluor counter: counter-screen for toxin protease inhibitors: compound fluorescence. compound autofluorescence counterscreen, microsphere flow cytometry; hits give high values. fluorescence intensity (concentration not given with the values). 360,000 compounds, 3.1% hits. AID 624483;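 active means at least 3 SD above the mean of all compounds, about 16000 in these data; inconclusive means too few beads counted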;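 further: 100 nL of 1 mM stock went into each well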
PrP 5UTR inh: inhibition of PrP 5' UTR reporter expression; cell-based PrP 5' UTR mRNA reporter, plate reader; 340,000 compounds, 0.35% hits; inhibition, % (concentration not given with the values);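 active means every replicate at 50% or more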;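 further: 0 = median of the neutral control wells; tested in H4 reporter cells; numbers are from one replicate; inactives centre near -14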
BJeLR viability: BJeLR cell viability loss | BJeLR (HRASV12) viability, CellTiter-Glo ATP luminescence, 48 h; reference of the scale not given here | inhibition, % (concentration not given with the values) | 300,000 compounds, 0.17% hits;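 active means replicate mean above 50%; inconclusive means above 50% but judged a plate artefact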;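 further: 50 nL library stock added to about 25 µL; numbers are from one replicate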
RN4220 kill: kills Staphylococcus aureus RN4220 | S. aureus RN4220 growth, OD600, 16 h | inhibition, % (concentration not given with the values) | 330,000 compounds, 0.33% hits;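 active means z-score of -3 or lower and OD600 up to 0.18 on both plates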;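 further: plate controls were untreated cells for no effect and reference antibiotic for full effect; stock transfer was 100 nL into about 80 µL; one replicate is shown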
Mtb hypoxia inh growth: also measured in Mtb hypoxia inh; calls as there; growth inhibition, %; measured here: M. tuberculosis growth (absorbance);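 0% = vehicle and 100% = reference antibiotic; read after six days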
An asterisk follows results filed as active; ? = inconclusive; · = no result given; & = joins results of further samples.

SMILES	Sa ugtP lethal	Mtb hypoxia inh	Mtb hypoxia inh growth	Autofluor counter	PrP 5UTR inh	BJeLR viability	RN4220 kill
S=C(c1ccc(N2CCOCC2)cc1)N1CCOCC1	9	3	-1	13767	-26	9	1.0
Cc1ccccc1C(=O)N(C)Cc1ccccc1	2	8	8	8033	·	-8	-0.5
COc1cc(C(=O)N/N=C(\C)Cc2ccccc2)cc(OC)c1OC	·	·	·	2528	-12	-11	·
O=S(=O)(Nc1ccccn1)c1ccc(Oc2ccccc2)cc1	-5	-3	12	3775	-8	-12	3.7
CCN(CC)Cc1cc(C(C)=O)ccc1O	2	·	·	2789	-32	-2	-1.1
O=C1OCCC1Sc1nnc(-c2ccccc2)o1 (stereo not given)	3	·	·	4921	-13	2	-2.1
COc1cc(/C=N/N=C2/SCC(=O)N2c2ccc(O)cc2)ccc1O	·	·	·	4780	-4	-1	·
CCCNC(=O)NC(=O)c1cnccc1C(F)(F)F	-8	-2	7	6162	-29	-3	1.4
C(CCc1ccccc1)=Nn1cnnc1	-2	13	1	·	·	·	2.4
CC(=O)N1c2ccc(S(=O)(=O)NCCc3ccc(S(N)(=O)=O)cc3)cc2CC1C (stereo not given)	0	6	10	5230	-10	-3	0.1
CC(C)C(NS(=O)(=O)c1ccccc1)C(=O)N1CCCCCC1 (stereo not given)	3	16	6	4188	-6	2	4.9
COc1ccc(NC(=O)CSc2nnc(Cc3ccc(C)cc3)c(=O)n2N)cc1	2	-7	-5	?	0	-14	3.2

Random excerpt: 3 entries already listed.
SMILES	Sa ugtP lethal	Mtb hypoxia inh	Mtb hypoxia inh growth	Autofluor counter	PrP 5UTR inh	BJeLR viability	RN4220 kill
S=C(c1ccc(N2CCOCC2)cc1)N1CCOCC1	9	3	-1	13767	-26	9	1.0
O=S(=O)(Nc1ccccn1)c1ccc(Oc2ccccc2)cc1	-5	-3	12	3775	-8	-12	3.7
CCCNC(=O)NC(=O)c1cnccc1C(F)(F)F	-8	-2	7	6162	-29	-3	1.4

Returning to the listing; the 4 compounds before the break are reprinted first.
SMILES	Sa ugtP lethal	Mtb hypoxia inh	Mtb hypoxia inh growth	Autofluor counter	PrP 5UTR inh	BJeLR viability	RN4220 kill
C(CCc1ccccc1)=Nn1cnnc1	-2	13	1	·	·	·	2.4
CC(=O)N1c2ccc(S(=O)(=O)NCCc3ccc(S(N)(=O)=O)cc3)cc2CC1C (stereo not given)	0	6	10	5230	-10	-3	0.1
CC(C)C(NS(=O)(=O)c1ccccc1)C(=O)N1CCCCCC1 (stereo not given)	3	16	6	4188	-6	2	4.9
COc1ccc(NC(=O)CSc2nnc(Cc3ccc(C)cc3)c(=O)n2N)cc1	2	-7	-5	?	0	-14	3.2
COc1ccc(OCCn2cc(C=NNC(=O)c3ccncc3)c3ccccc32)cc1	3	12	7	·	·	·	1.1
CCOC(=O)C1CCCN(Cc2nc(CC3CC3)no2)C1 (stereo not given)	6	6	-2	4500	-2	-3	3.1
COc1cccc(CN2CCCC(C(=O)Nc3ccc(-c4cscn4)cc3)C2)c1 (stereo not given)	18	12	-5	?	13	-10	5.7
O=C(c1cc(-c2ccco2)nc2ccccc12)N(Cc1nnc(-c2ccc(Cl)cc2)o1)C1CC1	-8	5	5	?	-22	0	-0.7
Cn1c(=O)[nH]c(=O)c2c1nc(Br)n2CC=NNC(N)=S	7	7	2	·	·	·	4.3
Cc1c(NC(=O)C(=O)NN=Cc2cccs2)c(=O)n(-c2ccccc2)n1C	0	8	6	·	·	·	0.9
CCCN(CCC)C(=O)Cc1coc2ccc3ccccc3c12	-3	·	·	4946	-21	10	2.4
c1cncc(C(c2nnnn2C2CCCC2)N2CCCC2)c1 (stereo not given)	4	9	6	6564	-18	0	2.3
O=C(Nc1cc(C(F)(F)F)ccc1N1CCOCC1)c1ccc(F)cc1	-6	25	-20	3331	3	1	-20
COc1ccc(NC2=CC(=O)N(C)C2=O)cc1	5	-5	-2	1949	-29	2	3.7
COc1ccc(Cc2nnc(-c3ccccc3)o2)cc1	14	·	·	5020	-32	-4	3.8
Cc1ccc(NC(=O)CCN2CCN(C/C=C/c3ccccc3)CC2)cc1C	1	0	3	12192	·	2	0.7
COC(=O)c1c(NC(=S)NN2CCN(C)CC2)sc2c1CCC(C)C2 (stereo not given)	28	23	19	3514	-13	5	52
CCN1CCN(Cc2ccc(NC(=O)c3cc(NC(=O)N4CCNC4=O)cc(OC)c3)cc2C(F)(F)F)CC1	-14	11	6	3714&3930	2	-1	2.3
Clc1ccc(C=NNc2ncnc3nc[nH]c23)cc1	16	8	4	·	·	·	13
COc1ccccc1C/C(N)=N/OC(=O)COc1cccc(C)c1	16	0	8	7643	-27	-1	-1.0
COc1ccccc1NS(=O)(=O)c1cc(C(=O)NCc2cccnc2)ccc1C	-9	-13	-11	?	-12	0	-5.1
COc1cccc(NC(=O)COc2ncnc3sc(C)c(C)c23)c1	-6	-2	6	2601	-33	9	0.0
O=C(Nc1cc(C(F)(F)F)ccc1-n1cncn1)c1ccc(Br)cc1	-15	4	4	24053*	-3	-1	0.3
COc1cc(C(=O)NCc2ccc(OCCN(C)C)cc2)cc(OC)c1OC	-6	2	-2	4276	-11	·	2.1
COCCCNC(=S)NC1CC2CCC(C1)N2Cc1ccccc1 (stereo not given)	-2	6	0	2065	-7	-3	7.4
Cc1noc(C)c1COc1cccc(C(=O)NCCc2c[nH]c3ccccc23)c1	8	13	15	3904	-19	-8	0.2
COc1cc(Cl)cc(C=NNC(N)=O)c1O	2	6	-1	·	·	·	8.2
C(#CCN1CCCC1)CC(c1ccccc1)c1ccccc1	-3	-4	5	3922	-24	-2	-0.2
COc1ccc(C2C(C(=O)c3sc(C)nc3C)=C(O)C(=O)N2CCCn2ccnc2)cc1 (stereo not given)	-4	-1	0	3948	-15	18	2.2
O=C(Nc1cccc(S(=O)(=O)N2CCCC2)c1)c1ccncc1	-2	9	11	5573	3	5	6.7
COc1cccc(S(=O)(=O)NCc2ccc(C(=O)N3CCN(Cc4ccccc4)CC3)cc2)c1	2	-2	2	5670	-12	2	-1.0
C/C(=N\NC(=O)C(=O)Nc1ccc(C)cc1)c1ccncc1	·	·	·	2597	0	-14	·
Cc1nn(-c2ccccc2)c(N)c1C1(O)C(=O)Nc2ccc([N+](=O)[O-])cc21 (stereo not given)	3	6	-1	4396	-20	-3	5.5
COc1ccc(N2C(=O)CC(N3CCN(c4ccc(C(=O)c5cccnc5)cc4)CC3)C2=O)cc1 (stereo not given)	6	8	5	15309	-20	-3	7.0
Cc1cnc(CNC(=O)c2ccc3oc(Cc4ccccc4)nc3c2)[nH]1	9	9	4	4176	-3	-2	4.2
CC(C)NC(=S)NN(c1ccccc1)c1ccccc1	-6	-5	1	6564	50	-11	-1.9
CCOc1c(Nc2cccc(Cl)c2)c(=O)c1=O	-2	7	9	4071	-28	-1	0.1
Cc1cc(=O)oc2cc(OC(C)C(=O)NCC3CCC(C(=O)O)CC3)c(Cl)cc12 (stereo not given)	-19	·	·	5725	-9	-3	1.4
COC(=O)c1cc(OC)c(OC)cc1NC(=S)NC(=O)c1ccco1	·	·	·	5218	-14	7	·
CCC1CN1P(=O)(c1ccccc1)N1CC1CC (stereo not given)	-3	6	0	4015	-18	·	1.5
CCN(CC(=O)Nc1ccc2c(c1)OC(F)(F)O2)Cc1nc2ccccc2c(=O)[nH]1	-10	·	·	2868	-11	4	1.9
Cc1ccc(C(O)(C(=O)NNc2ccc3ccccc3n2)c2ccc(C)cc2)cc1	5&23	2&6	7&8	2474&2024	-23&-4	-12&-3	-1.2&18
Cc1ccc(NC2=NC(=S)N(CC#N)C23CCCCC3)cc1	-3	6	7	2880	-3	0	1.1
Cc1ccc(-c2nc(CS(=O)CC(=O)NCCCc3ccccc3)c(C)o2)cc1 (stereo not given)	4	-5	5	?	-5	-8	-4.7
O=C(Nn1cnnc1)c1ccc(OC(F)(F)C(F)C(F)(F)F)cc1 (stereo not given)	1	5	3	3484	4	-5	1.9
CCOc1ccc(C2CC(c3ccc(CC)cc3)n3nc(N)nc3N2)cc1 (stereo not given)	9	·	·	4458	-59	2	1.6
O=C(NN1C(=O)C2C3C=CC(C4CC34)C2C1=O)c1ccccc1Cl (stereo not given)	10	-2	10	2617	-26	-1	6.5
Cc1ccccc1N(CC(=O)NCCc1ccccc1)C(=O)c1csnn1	13	-1	1	3881	-22	-8	3.7
COC(=O)/C=C/COc1ccccc1[N+](=O)[O-]	10	5	11	4706	-24	-11	5.9
CCOC(=O)Cn1c(=O)c2c(nc(Br)n2CC(=O)OCC)n(C)c1=O	0	·	·	2412	-20	-10	-1.7
COc1cccc(C(=O)Nc2ccc(NC(=O)C3CC3)nc2)c1	-1	3	0	5082	-13	5	-0.3
O=C(NC1CCCCC1)c1cc([N+](=O)[O-])[nH]n1	·	·	·	8984	-16	-2	·
O=c1c(Cc2c(F)cccc2Cl)c(O)ccn1CCCN1CCOCC1	10	10	10	4566	-9	-1	-1.9
CCc1ccc(NC(=O)N[C@H](C(=O)O)C(C)CC)cc1 (stereo not given in full)	0	15	0	4605	-52	-8	4.8
O=C(CSc1nnc(NC2CC2)s1)NN1C(=O)NC2(CCCCC2)C1=O	5	5	10	8698	-23	·	3.8
COc1ccc(C)cc1S(=O)(=O)NCCC1=CCCCC1	11	-4	4	10623	·	-8	4.3
O=C(CCc1nnc(Cc2cccc(C(F)(F)F)c2)o1)NCCc1ccccc1F	-5	2	11	3847	-34	-6	-3.5
Cc1ccc(NC(=O)Cn2cnc3c(OCc4ccccc4)ncnc32)cc1C	0	-2	-8	3860	-19	·	-5.2
COc1ccc(NC2CCCN(C(=O)COc3ccc(Cl)cc3C)C2)cc1OC (stereo not given)	2	-1	-7	5264	-3	-1	-1.4
CCOC(=O)c1sc(Nc2ccc(OCC)cc2)nc1C	-5	3	15	4393	31	7	-2.8
Cc1ccc(Nc2nnc(SCC(=O)NCc3ccco3)s2)cc1	20	4	3	2389	-18	10	25
O=c1cc(CN2CC(O)Cc3ccc4ccccc4c32)nc2sccn12 (stereo not given)	-1	1	0	4395	-26	-4	7.4
COc1cc(/C=N/n2cnnc2-n2nc(C)cc2C)cc([N+](=O)[O-])c1O	·	·	·	4708	-36	-5	·
O=C(NCCC1=CCCCC1)c1ccc(Cl)c(S(=O)(=O)Nc2ccccc2)c1	-21	-10	2	12711	-29	-7	-3.9
More results:
SMILES	Sa ugtP lethal	Mtb hypoxia inh	Mtb hypoxia inh growth	Autofluor counter	PrP 5UTR inh	BJeLR viability	RN4220 kill
COc1ccc(C2CC(c3cccs3)=NN2C(=O)CCl)cc1OC (stereo not given)	·	·	·	5047	-6	44	·
CC(=O)N1CCC(C(=O)OCc2ccccc2F)(c2ccccc2)CC1	0	7	9	5466	-15	-2	6.9
CCC(=O)c1c[nH]c(C(=O)NCc2cccc(C(F)(F)F)c2)c1	0	-11	2	3692	-2	-7	3.7
COc1cc(O)ccc1/C=N/NC(=O)c1ccc([N+](=O)[O-])cc1	·	·	·	4550	-18	0	·
Cc1ccc(C2C3C(=O)N(C)C(=O)C3[C@]3(C)C(=O)N(CC4CC4)CC(=O)N23)o1 (stereo not given in full)	2	3	-2	·	·	·	1.9
COc1ccc(C(=O)C[n+]2ccc3c(c2)nnn3-c2ccccc2)cc1	1	8	5	11950	-3	-1	7.5
Cc1cc(C(=O)O)ccc1[N+](=O)[O-]	3	12	2	4260	2	·	7.3
O=C(/C=C/c1ccc(Cl)cc1Cl)N1CCc2ccccc21	-2	-2	-7	2594	-141	10	6.1
CC(=NNC(=O)c1cccc(NN=C(C)c2ccccc2)c1)c1ccccc1	-1	10	2	·	·	·	2.9
CCOC(=O)C1C2COc3ccc(C)cc3C2N2C(=O)c3cc(C)ccc3NC(=O)[C@@]12C (stereo not given in full)	-3	8	0	·	·	·	1.3
CCOC(=O)N1CCOCCOCCN(C(=O)OCC)CCOCC1	-2	·	·	5409	-7	-8	-0.1
O=c1c2c(nc3c(-c4cccc(Br)c4)c[nH]n13)CCCC2	-14	-4	-4	16678*	4	8	4.7
O=C(Nc1ccccc1)Oc1ccccc1	10	6	3	8032	-3	-7	4.4
N#CC(=NNc1ccccc1F)c1nc(-c2ccccc2)cs1	-4	-7	-3	·	·	·	4.6
CC(=O)Nc1cc2c(cc1Cl)Cc1cc(Cl)ccc1-2	5	20	10	2937	-20	·	12
CC(=O)NCc1nc2ccccc2n1Cc1ccccc1C	1	12	5	5297	-3	-4	2.6

Screening data from PubChem.
